gsp ag: qHTS for Agonist of gsp, the Etiologic Mutation Responsible for Fibrous Dysplasia/McCune-Albright Syndrome: qHTS; gsp mutant cells, cAMP HTRF, 30 min; control for the full effect not named in the record; Potency, µM (top dose mostly 76.9 µM), without a hit: at the highest dose activation (cAMP increase), hits mostly activators; 340,000 tested, 0.13% active; active = well fitted activation curve with a large enough effect; inconclusive = small, poorly fitted or top-dose-only effect, or another doubt; inactive = no such curve, though single readings can be large or run the other way; cell line not stated here;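 also: phosphodiesterase inhibitor Ro 20-1724 added with compounds to block cAMP breakdown; potency is read from the fitted curve at half-maximal effect; nearly all actives have a fitted effect of over 60% in size; about a fifth of the inactives were tested at one dose only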
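Cells stably selected in G418 were plated at 2000/well, grown 16-24 hr, then given compounds in DMSO with the PDE inhibitor […] (300 uM solution added) for 30 min at 37C; cAMP was read by HTRF.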
gsp antagonist: qHTS for Antagonists of gsp, the Etiologic Mutation Responsible for Fibrous Dysplasia/McCune-Albright Syndrome: qHTS; gsp-mutant cells, cAMP HTRF, 30 min; control for the full effect not named in the record; 340,000 tested, 0.4% active; Potency, µM (highest dose often 76.9 µM), for the others: top-dose activity change, negative = inhibition, most hits filed as inhibitors; active = falling curve of any shape with a large fitted effect; inconclusive = falling curve, mostly with a smaller effect; inactive = flat or rising curve; cell line not stated here;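 also: intracellular cAMP measured with PDE inhibitor Ro 20-1724 present during compound exposure; potency is read from the fitted curve at half-maximal effect; % is scaled to controls: 0 for no effect and ±100 for the full control effect; nearly all actives have a fitted effect of over 65% in size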
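G418-selected cells were plated in DMEM/10% FBS for 16-24 h at 37C, then treated with compounds plus the PDE inhibitor […] (300 uM solution added) for 30 min at 37C. Intracellular cAMP was measured by HTRF after 30 min lysis at room temperature.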
Menin-MLL FL inh: qHTS Assay for Inhibitors Targeting the Menin-MLL Interaction in MLL Related Leukemias: Competition With Fluorescein Labeled MLL-derived Peptide; AID 1766, 2009; FP activity change, % at 61.4 µM; 290,000 tested, under 10 active; Fluorescence polarization, fluorescein-MLL peptide displacement from menin; inconclusive = falling polarisation curve, or a change in total fluorescence; inactive = total fluorescence flat and polarisation flat or rising; no compound was filed as active; the % refers to the polarisation; negative = inhibition;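 also: % of control where 0% means no effect; inhibitors lower the polarisation; unlabelled MLL peptide was the positive control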
ClpP mod: qHTS Assay for Activators of ClpP | AID 651965, 2013 | Potency, µM (doses to about 57.5 µM), for the others: at the highest dose activity change, negative = active | 340,000 tested, 1.9% active | ATP-dependent Clp protease proteolytic subunit (Bacillus subtilis (strain 168)), P80244 | purified B. subtilis ClpP, FRET peptide cleavage, 20 min; active = well fitted falling curve with a large enough effect; inconclusive = small, poorly fitted or top-dose-only effect; inactive = no such curve, though single readings can be large or run the other way; also: potency is read from the fitted curve at half-maximal effect; the source files actives as falling curves though it sought activators and does not explain the sign; nearly all actives have a fitted effect of over 65% in size; many hits overshoot -100%
Target sequence (P80244 whole entry, looked up): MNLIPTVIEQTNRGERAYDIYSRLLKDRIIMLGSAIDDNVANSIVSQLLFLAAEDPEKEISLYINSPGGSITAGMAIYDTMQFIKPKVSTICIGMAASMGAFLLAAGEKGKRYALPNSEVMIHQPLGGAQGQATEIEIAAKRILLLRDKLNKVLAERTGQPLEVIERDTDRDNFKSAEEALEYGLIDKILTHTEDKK
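Purified B. subtilis ClpP, 10 microg/mL final in Tris/HCl pH8 with KCl, BSA, glycerol and Tween-20, cleaved an Abz/nitrotyrosine-quenched decapeptide. Fluorescence (ex 320, em 430) was read at 0 and 20 min at room temperature. Delta was normalized to 5.8 microM ADEP and DMSO/no-enzyme controls.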
TRPML1 inh: qHTS for Inhibitors of the Human Mucolipin Transient Receptor Potential 1 (TRPML1). TRPML1-inducible cells, Ca2+ dye fluorescence, FDSS; active compounds read low; inhibition of EC80 agonist-evoked calcium signal. 390,000 tested, 0.02% active. activity change, negative = inhibition, % (concentration not given with the values); in the data active means activity change below about -50%; inconclusive means about -30% to -50%; inactive means above about -30%;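 also: stimulus is agonist 54-4 at its EC80 concentration; % is scaled to controls: 0 for no effect and ±100 for the full control effect; the text of the record puts the active cut at -80%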
Target sequence (Q9GZU1 whole entry, looked up): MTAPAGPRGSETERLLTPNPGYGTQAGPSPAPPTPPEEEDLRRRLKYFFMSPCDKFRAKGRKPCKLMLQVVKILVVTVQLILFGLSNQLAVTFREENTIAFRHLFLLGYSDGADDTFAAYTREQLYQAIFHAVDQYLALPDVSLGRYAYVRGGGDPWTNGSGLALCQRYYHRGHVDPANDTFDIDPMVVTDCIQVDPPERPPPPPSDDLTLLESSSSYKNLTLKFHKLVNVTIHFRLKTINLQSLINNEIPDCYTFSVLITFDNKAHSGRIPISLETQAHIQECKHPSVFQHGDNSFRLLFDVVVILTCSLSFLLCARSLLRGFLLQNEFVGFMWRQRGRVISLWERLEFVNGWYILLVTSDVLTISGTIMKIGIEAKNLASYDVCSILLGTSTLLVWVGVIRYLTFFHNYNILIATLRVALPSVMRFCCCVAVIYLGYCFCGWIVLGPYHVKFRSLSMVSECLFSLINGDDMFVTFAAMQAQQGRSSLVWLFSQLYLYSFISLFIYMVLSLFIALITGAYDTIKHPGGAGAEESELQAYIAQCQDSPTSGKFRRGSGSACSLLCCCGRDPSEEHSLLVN
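TRPML1-DL cells, Tet-induced overnight (~16 h, 37 °C) at 1,500 cells/well, were loaded with Ca8 no-wash dye plus quencher for 45-90 min at room temperature. Compounds were pinned during FDSS kinetic reading; agonist 54-4 at EC80 (4 uM final) then added.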
TRPML1 agonist: qHTS for Agonists of the Human Mucolipin Transient Receptor Potential 1 (TRPML1); Mucolipin-1 (Homo sapiens), Q9GZU1; TRPML1-expressing cells, Ca2+ dye fluorescence, FDSS; host cell line not named in the record; reference of the full effect not given here; activation, % (concentration not given with the values); 410,000 tested, 0.12% active; AID 624414, 2012; in the data active = activation above about 50%; inconclusive = about 30% to 50%; inactive = below about 30%; also: 0% is about no effect; the text of the record puts the active cut at 80%
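Calcium fluorescence on an FDSS kinetic reader gave the read-out. Tet-induced TRPML1-DL cells were plated overnight, dye-loaded (Ca8 with quencher, 45-90 min, room temperature, dark), then read 110 s after compound addition, and again 110 s after 4uM final 54-4 (EC80).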
* marks the source's active call; other numbers are inactive results; u = inconclusive; x = not tested or not shown; & = joins results of further samples; [ ] = remark or other dose. Outcome played no part in choosing rows, and some 2.1% of all compounds hit somewhere here.

Order of results: gsp antagonist	TRPML1 inh	Menin-MLL FL inh	gsp ag	ClpP mod	TRPML1 agonist
- COc1cc(CNCc2ccc(C)cc2)cc(OC)c1OC
  4%	-5	-0.4	3%	-1.7%	-0.1
- Cc1ccc(-c2nc(CS(=O)(=O)CC(=O)N3CCN(C)CC3)c(C)o2)cc1
  20%	3	x	14%	-10%	-0.2
- COc1ccc2[nH]c3c(c2c1)CCNC3c1ccc([N+](=O)[O-])o1 (stereo unspecified)
  -10%	13	u	-64%[inhibitor]	11%	2.5
- COc1ccc(F)cc1CSc1nnnn1-c1ccc(O)cc1
  20%	-17	-1.2	-19%	x	2.2
- COc1ccc(C(=O)COC(=O)CCN2C(=O)C3C4C=CC(C5CC45)C3C2=O)cc1 (stereo unspecified)
  -23%	12	x	u	0.4%	1.1
- O=C(CCN1CCN(C(=O)c2ccco2)CC1)Nc1ccc(F)cc1
  -9%	-4	-1.6	-5%	-2.1%	0.9
- CSc1sc(C(=O)N(C)C)c2c1S(=O)(=O)N(C)c1ccccc1-2
  u	9	0.1	-9%[15.4 µM]	-0.8%	-0.6
- COc1cc(OC)c(OC)cc1CN1CCC(O)CC1
  0%	14	4.8	-54%[inhibitor]	1.8%	2.1
- Cc1cc(=O)n(Cc2ccccc2)c(O)c1C#N
  -2%	-5	u	6%[15.4 µM]	-0.9%	1.3
- COCCCn1c(=O)c2sccc2n(Cc2ccccc2)c1=O
  -3%	1	-2.0	-7%[15.4 µM]	-3.1%	-0.1
- O=C(OCC(=O)N1CCCC1)c1ccc(Cl)nc1
  -3%	-3	x	-5%	0.3%	1.3
- COc1ccc(N(C(=O)CNC(=O)c2cccs2)C(C(=O)NC2CCCC2)c2cccnc2)cc1 (stereo unspecified)
  -4%	8	-1.8	-14%[15.4 µM]	x	-1.0
- COc1ccc(N2CCCCn3c2nc2c3c(=O)[nH]c(=O)n2C)cc1
  1%	-14	1.7	-18%	-3.4%	0.1
- CCCCN1C(=O)c2ccc(C(=O)NC3(C)CCS(=O)(=O)C3)cc2C1=O (stereo unspecified)
  4%	0	x	16%	0.0%	-0.8
- O=C(Nc1ccc2c(c1)CCCN2C(=O)c1ccccc1)c1ccccc1Br
  u	16	-3.3	-31%[inhibitor]	-2.1%	0.1
- O=C(NCc1ccccc1Cl)C1(S(=O)(=O)c2ccc(Cl)cc2)CC1
  -1%	4	-4.9	-18%	x	3.1
- CCN(CC)C(=O)c1c(NC(=O)c2cccc(C)c2)sc2c1CCC(C)C2 (stereo unspecified)
  x	-7	x	x	-0.6%	-0.6
- COc1ccc(C(=O)CSc2nn3c(=O)c(C(C)(C)C)nnc3s2)cc1
  u	20	3.3	17%	-2.5%	0.3
- N#CC1=C(SCC(=O)NC23CC4CC(CC(C4)C2)C3)NC(=O)C(C#N)C12CCCCC2 (stereo unspecified)
  u	4	-0.8	-5%	-2.3%	1.9
- NC(=O)c1ccc(N2CCN(c3ncc(C(F)(F)F)cc3Cl)CC2)cc1
  -10%	x	6.0	17%	-1.7%	x
- CCOC(Cn1c(-c2ccc(OC)cc2)nc2ccccc21)OCC
  -24%	-8	2.1	0%	u	2.5
- COc1ccc(-c2nnc(SCC(=O)Nc3ccccc3)n2C)cc1
  -13%	0	-0.1	-18%	1.9%	0.1
- CCOC(=O)CSc1n[nH]c(NC(=O)c2ccccc2)n1
  0%	17	-1.2	-28%	-2.0%	-0.4
- COC(=O)c1ccccc1-c1ccc(/C=N/NC(N)=O)o1
  24%	15	3.9	-16%[15.4 µM]	-0.5%	16
- Cn1nc(C(=O)Nc2cccc(Cl)c2)cc1C(=O)Nc1cccc(Cl)c1
  8%	-1	0.8	0%	4.2%	1.7
- CN(Cc1nc(-c2ccc3c(c2)OCO3)no1)CC1(N2CCOCC2)CCCCC1
  4%	4	0.2	-10%[15.4 µM]	x	-0.9
- O=[N+]([O-])c1ccccc1S(=O)(=O)NCc1ccc(F)cc1
  -1%	9	-7.3	-7%[15.4 µM]	x	2.3
- CCC(C)(C)NC(=O)C(c1ccc(OC)cc1)N(C(=O)CCC(=O)Nc1cc(C)on1)c1ccc2c(c1)OCO2 (stereo unspecified)
  x	-3	1.8	-7%[15.4 µM]	x	-0.4
- CCN(c1ccccc1)S(=O)(=O)c1ccc(Cl)c(NC(=O)CN2C(=O)NC3(CCCC3)C2=O)c1
  -10%	-15	1.6	4%	1.9%	2.4
- COc1ccc(-c2cc(C(=O)Nc3ccc4c(c3)OCO4)no2)cc1
  13%	28&5	6.0	-5%[15.4 µM]	0.6%&6.3%	-1.1&0.1
- CCOC(=O)c1[nH]c(C)c(CCC(=O)NCc2ccc(OCC)cc2)c1C
  x	-4	x	x	-3.7%	-1.0
- CCOC(=O)c1c(C(=O)OCC)c(C)n(Cc2cc(OC)c(OC)c(OC)c2)c1C
  -16%	-5	0.6	-12%	-3.0%	2.5
- CC1(C)CC(=O)C=C(NCC2CCCO2)C1 (stereo unspecified)
  3%	38	7.0	-40%[inhibitor]	-1.2%	0.5
- Cc1nn(-c2ccc(F)cc2)c(Cl)c1/C=N/NC(=O)c1cccc(S(=O)(=O)N2CCCC2)c1
  -1%	21	7.0	16%	1.3%	-0.1
- COC(=O)c1ccc2nc(NC(=O)C3CCCCC3)sc2c1
  3%	-15	0.0	-44%	-4.5%	2.0
- CCOc1ccc(C(=O)NCC(=O)OCc2nnc(-c3ccccc3)o2)cc1OCC
  -13%	0	x	-5%	0.9%	0.8
- Cc1ccc(C)c(NC(=O)Cn2nnc(C(=O)NCc3ccco3)c2N)c1
  4%	16&27	9.1	-13%	1.8%&-0.1%	0.3&2.6
- CCOc1ccc(NC(=O)CN(C)C(=O)CCNC(=O)c2ccco2)cc1OCC
  -7%	-6	x	8%	-0.8%	0.4
- NC(N)=N/N=C/c1ccc(Cl)cc1Cl
  -10%	-1	2.5	-3%[15.4 µM]	-1.4%	1.6
- CCCCNCCOCCOc1ccc(C)cc1Br
  13%	0	x	5%[15.4 µM]	1.8%	-0.1
- COc1ccc(-n2nnnc2SCC(=O)N(C)C2CCS(=O)(=O)C2)cc1 (stereo unspecified)
  -8%	-7	x	-6%[15.4 µM]	-0.3%	-0.5
- COc1ccc(C2=NOC(C)(c3sc(-c4ccc(Cl)cc4)nc3C)C2)cc1 (stereo unspecified)
  2%	-2	x	x	u	0.2
- COc1ccc(S(=O)(=O)N2CCOCC2)cc1NC(=O)Cc1coc2cc(C)ccc12
  1%	4	x	8%[15.4 µM]	1.2%	1.6
- Nc1nc(NCc2ccco2)nc(Nc2ccc(F)cc2)c1[N+](=O)[O-]
  7%	-1	-5.5	-6%[15.4 µM]	x	0.2
- COc1ccc(NC(=O)C2CCCC2)cc1S(=O)(=O)N1CCOCC1
  5%	9	x	21%	-2.6%	0.6
- Brc1ccc(OCc2nnnn2-c2ccccc2)cc1
  -14%	0	-2.1	-4%[15.4 µM]	x	-0.3
- COc1ccc(C(=O)NC(=S)Nc2cc(C)ccn2)cc1[N+](=O)[O-]
  -1%	3	1.9	5%	4.1%	-0.3
- COc1ccc(CCNC(=O)COc2ccc(-c3ccccc3)cc2)cc1OC
  0%	18	-1.3	2%	0.3%	5.2
- CC(=O)Nc1ccc(S(=O)(=O)Nc2ccc(S(=O)(=O)Nc3nccs3)cc2)cc1
  4%	16	x	u	x	0.1
- CCCn1c(=O)c(Br)cn(-c2ccccc2C)c1=O
  0%	0	-1.1	13%	1.0%	-0.9
- Cc1cccc(C)c1NC(=S)NC(C)(C)CO
  13%	-4	0.0	-7%	0.9%	-0.8
- O=C(N1CCOCC1)N1CCN(C(=O)N(c2ccccc2)c2ccccc2)CC1
  1%	-15	0.0	-24%	0.0%	0.3
- Cc1nn(-c2ccccc2)c(Cl)c1C(=O)NCC1CCCO1 (stereo unspecified)
  17%	3	x	u	0.9%	-0.5
- Cc1cccc(CNc2ncnc3[nH]ncc23)c1
  -2%	-16	x	10%[15.4 µM]	-1.1%	-0.3
- COc1ccc(CNC(=O)/C=C/c2ccc(OCCCF)cc2)cc1
  4%[15.4 µM]	-6	4.4	-2%	-3.3%	1.8
- O=C(COc1ccccc1Cl)NCCCNC(=O)c1ccccn1
  -1%	5	7.5	15%[15.4 µM]	x	0.6
- C/C(=N\OCC(=O)O)c1ccc(Cl)cc1
  -4%	-14	0.2	1%	1.8%	1.9
- CCc1ccc(C2C(C#N)=C(N)OC3=C2C(=O)CCC3)s1 (stereo unspecified)
  -4%	10	-2.2	-1%	x	2.7
- CCOC(=O)C1(CCCc2ccccc2)CCN(C(=O)Cc2nonc2C)CC1
  -12%	75	-8.5	-31%[inhibitor]	x	1.5
- CCOc1ccc(/C=N/NC(=O)Cn2ccnc2C)cc1
  7%	-17	-0.2	30%	x	0.9
- CC(C)OCCCN1C=C2C(=O)C(C)(OC(=O)CCc3ccccc3)C(=O)C=C2C=C1c1ccc(C#N)cc1 (stereo unspecified)
  -11%	-1	2.2[11.7 µM]	x	-3.0%	1.0
- CCN1CCN(CC2CC3C=CC2C3)CC1 (stereo unspecified)
  6%	-2	3.1	-14%	0.5%	0.7
- Cc1ccc(CN2CCN(Cc3cnc(C)[nH]3)CC2CCO)cc1 (stereo unspecified)
  2%	5	-1.1	u	x	0.3

Screens from PubChem BioAssay.
